# NS1 function inh – influenza NS1 inhibition; S. cerevisiae slowed by influenza A NS1, growth recovery by OD600; 270,000 tested, 0.4% active; Potency, µM (top dose mostly 46.1 µM), for inactives: at the top dose activity, positive = more growth; AID 2326; active means well fitted rising curve with a large enough effect; inconclusive means small, poorly fitted or top-dose-only effect; inactive means no such curve, though single readings can be large or run the other way; also: nearly all actives have a fitted effect of over 50% in size
#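 Compounds were scored for reversing the slow growth caused by influenza A NS1 in S. cerevisiae, measured by optical density at 600 nm. Assay medium contained 2% galactose at pH 6.0; NS1-free yeast of the same strain were the positive control.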
# Cruzain Triton – cruzain (T. cruzi) inhibition with detergent; P25779; purified cruzain, Z-FR-AMC fluorescence, 0.01% Triton; Potency, µM, for inactives: max response, negative = inhibition, most hits filed as inhibitors; 200,000 tested, 0.43% active; AID 1478;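 also: plate controls were neutral wells for no effect and buffer without enzyme for full effect; nearly all actives have a fitted effect of over 40% in size; top concentration of the series not given in the record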
# Target sequence (P25779 123-467 limits assumed): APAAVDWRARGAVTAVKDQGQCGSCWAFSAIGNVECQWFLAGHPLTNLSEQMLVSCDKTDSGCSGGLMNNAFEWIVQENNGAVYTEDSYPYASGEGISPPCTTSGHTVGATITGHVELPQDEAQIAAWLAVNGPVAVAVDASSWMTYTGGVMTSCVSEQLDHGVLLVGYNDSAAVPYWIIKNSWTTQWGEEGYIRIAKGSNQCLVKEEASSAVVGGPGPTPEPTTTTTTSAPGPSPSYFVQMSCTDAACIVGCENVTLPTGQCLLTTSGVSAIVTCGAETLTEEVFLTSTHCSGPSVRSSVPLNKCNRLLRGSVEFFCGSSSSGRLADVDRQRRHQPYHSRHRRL
#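 Read-out: AMC fluorescence (360 nm excitation, 450 nm emission), four reads over 2 min, first-to-third difference used. Conditions: cruzain 1.5 nM, Z-FR-AMC 2 uM, pH 5.5 acetate, 5 mM DTT, 0.01% Triton X-100.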
# Cruzain inh noDet – cruzain (T. cruzi) inhibition without detergent | P25779 | purified cruzain, Z-FR-AMC fluorescence, no detergent | Potency, µM, without a hit: max response, negative = inhibition, actives largely listed as inhibitors | 200,000 tested, 2.3% active;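 also: plate controls were enzyme without inhibitor for no effect and buffer without enzyme for full effect; nearly all actives have a fitted effect of over 40% in size; top concentration of the series not given in the record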
#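 Detergent-free condition (0.00005% Triton X-100) in acetate buffer pH 5.5 with DTT. 1.5 nM enzyme and compound were pre-mixed 15 min, then 2 uM Z-FR-AMC substrate added; reaction progress from fluorescence change between first and third reads (60 s).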
# The depositor's hits bear a star; ? = inconclusive; nt = not tested or not shown. Unless noted, calls follow the shape of the dose curve; as a rule, active = well fitted curve in the direction sought with a large enough effect; inconclusive = small, poorly fitted or top-dose-only effect, or another doubt; inactive = no such curve, though single readings can be large; an effect the other way counts as inactive or inconclusive. Potency is read from the fitted curve at half-maximal effect. A portion of the library; the hit share may differ from the screen's.
# Under each structure – NS1 function inh, Cruzain Triton, Cruzain inh noDet
> CCOC(=O)C1CCN(c2c(NCc3ccc(C(=O)O)cc3)c(=O)c2=O)CC1
→ -3.6%, nt, nt
> CCCCCn1c(=NC(C)=O)c(C#N)cc2c(=O)n3cccc(C)c3nc21
→ ?, nt, nt
> O=C(Nc1ccncc1)c1cc2ccccc2oc1=O
→ ?, nt, nt
> c1ccc(-c2nc3cc(Oc4ccc5oc(-c6ccccn6)nc5c4)ccc3o2)nc1
→ 2.0%, nt, nt
> CCOCCn1c(=O)c2c(nc3n2CCN3c2ccccc2)n(C)c1=O
→ 24.3%, nt, nt
> CCOc1ccc(C2c3c(oc4ccccc4c3=O)C(=O)N2c2ccccn2)cc1OC (stereo not drawn)
→ -1.6%, nt, nt
> CCCn1c(=O)c(C(=O)Nc2nnc(C)s2)c(O)c2ccccc21
→ 6.7%, nt, nt
> Cc1c(Cl)cccc1NC(=O)c1cc(-c2ccc(O)cc2)on1
→ -83.2%, nt, nt
> CC1(C)CC(=O)c2cc(C(=O)N3CCCCC3)c(=O)n(-c3ccc(Cl)cc3)c2C1
→ -6.1%, nt, nt
> CCN(CC)CCCN1C(=O)C(O)=C(C(=O)c2ccc(C)o2)C1c1ccco1 (stereo not drawn)
→ 8.9%, nt, nt
> CCN(CC)CCCN1C(=O)C(=O)/C(=C(/O)c2cnn(-c3ccccc3)c2C)C1c1ccncc1 (stereo not drawn)
→ 2.0%, nt, nt
> CCOc1cccc2cc(-c3nnc(-c4ccccc4)o3)c(=O)oc12
→ 1.5%, nt, nt
> CCc1nnc(NC(=O)CSc2nnc(-c3ccc(O)cc3)n2-c2ccccc2)s1
→ -13.8%, nt, nt
> Cn1c2ccccc2c2cnn(CC(=O)N3CCN(c4ncccn4)CC3)c(=O)c21
→ 2.6%, nt, nt
> CC(=O)C(Sc1nc(-c2ccco2)nc2c1c(=O)n(C)c(=O)n2C)C(=O)N(C)C (stereo not drawn)
→ -2.9%, nt, nt

# (listing goes on)
# Under each structure – NS1 function inh, Cruzain Triton, Cruzain inh noDet
> CC1CCN(C(=O)CSc2ccc3nnc(-c4cccc(F)c4)n3n2)CC1
→ -8.8%, nt, nt
> O=C1c2oc3ccccc3c(=O)c2C(c2ccc(Br)cc2)N1c1ncccn1 (stereo not drawn)
→ 13.0%, nt, nt
> O=c1nc2n(c3sc4c(c13)CCC4)Cc1ccccc1-2
→ 0.1%, nt, nt
> CCOC(=O)c1c(NC(=O)CN2CCN(c3ccccn3)CC2)sc2c1CCCC2
→ -27.1%, nt, nt
> O=C(CCN1CCN(CCC(=O)c2ccccc2)CC1)c1ccccc1
→ -87.4%, nt, nt
> Cn1c(=O)[nH]c(=O)c2c1nc(N1CCOCC1)n2CCSc1ncccn1
→ 3.2%, nt, nt
> CCN(CC)S(=O)(=O)c1cccc(C(=O)Nc2cc(C)nn2-c2nc(C)cc(C)n2)c1
→ ?, nt, nt
> CN(C)CCCN1C(=O)C(O)=C(C(=O)c2cccs2)C1c1ccccn1 (stereo not drawn)
→ 16.1%, nt, nt
> O=C(NCc1ccco1)c1cccn2c(=O)c3cc(Br)ccc3nc12
→ 1.6%, nt, nt
> CCC(C)C(NCc1cccc(C)c1)C(=O)O (stereo not drawn)
→ -9.5%, nt, nt
> Cn1nc(-c2ccc(N3CCOCC3)c(NC(=O)c3ccccc3)c2)c2ccccc2c1=O
→ -55.7%, nt, nt
> COc1cc2nc(NCCN3CCOCC3)n3nc(-c4ccccc4)nc3c2cc1OC
→ -10.2%, nt, nt
> COc1ccccc1OCc1nc2c3c(-c4ccccc4)c(-c4ccccc4)oc3ncn2n1
→ 5.0%, nt, nt
> COc1ccccc1N(CC(=O)Nc1cc(C)on1)S(=O)(=O)c1cccs1
→ -1.3%, nt, nt
> CCOc1nc(Nc2ccc(-c3nc4ccccc4o3)cc2)nc(N2CCOCC2)n1
→ -7.3%, nt, nt

# Next section; the last 4 above are carried over.
# Under each structure – NS1 function inh, Cruzain Triton, Cruzain inh noDet
> COc1cc2nc(NCCN3CCOCC3)n3nc(-c4ccccc4)nc3c2cc1OC
→ -10.2%, nt, nt
> COc1ccccc1OCc1nc2c3c(-c4ccccc4)c(-c4ccccc4)oc3ncn2n1
→ 5.0%, nt, nt
> COc1ccccc1N(CC(=O)Nc1cc(C)on1)S(=O)(=O)c1cccs1
→ -1.3%, nt, nt
> CCOc1nc(Nc2ccc(-c3nc4ccccc4o3)cc2)nc(N2CCOCC2)n1
→ -7.3%, nt, nt
> CCN(CC)CCCNC(CC(=O)O)C(=O)O (stereo not drawn)
→ 4.0%, nt, nt
> CCCc1nc(SCC(=O)NCc2ccc3c(c2)OCO3)c2c(=O)n(C)c(=O)n(C)c2n1
→ -3.1%, nt, nt
> COC(=O)Cn1cnc2c(nnn2-c2cccc(Cl)c2)c1=O
→ -4.3%, nt, nt
> Cc1nn2c3c(cnc2c1-c1ccccc1)C(=O)CC(C)C3 (stereo not drawn)
→ -6.0%, nt, nt
> Cc1cc(NCCN2CCOCC2)n2ncc(-c3ccc(Cl)cc3)c2n1
→ 8.1%, nt, nt
> Cc1cc(NC(=O)CN2CCN(c3ccccc3F)CC2)nc2c1c(=O)oc1ccccc12
→ -48.0%, nt, nt
> Cc1oc(-c2cc(Cl)ccc2Cl)cc1-c1nn2c(C)nnc2s1
→ ?, nt, nt
> CNC(=O)c1cc2c(=O)n3cccc(C)c3nc2n1C
→ 5.8%, nt, nt
> COC(=O)c1ccc2c(=O)n(CCN3CCOCC3)c(SCC(=O)NC3CCCCC3)nc2c1
→ 1.5%, nt, nt
> O=c1c2ccc(-c3nnc4n3-c3ccccc3SC4)cc2nc2n1CCCCC2
→ -3.5%, nt, nt
> Cc1nn2c3ccccc3nc2n(Cc2ccccc2)c1=O
→ 15.4%, nt, nt
> O=c1c2cc(Cl)ccc2nc2ccc(N3CCCC3)nn12
→ 3.7%, nt, nt
> Cc1ccc(C2c3c(oc4ccccc4c3=O)C(=O)N2c2nnc(C)s2)o1 (stereo not drawn)
→ -12.3%, nt, nt
> Cc1cnc(-c2nnc(N(C)C(=O)c3cnccn3)s2)cn1
→ -1.2%, nt, nt
> CCn1c(=N)c(C(N)=O)cc2c(=O)n3cccc(C)c3nc21
→ 7.4%, nt, nt

# One compound at a time (already shown). Screens in order: NS1 function inh, Cruzain Triton, Cruzain inh noDet
# CCOC(=O)C1CCN(c2c(NCc3ccc(C(=O)O)cc3)c(=O)c2=O)CC1 is listed as -3.6%, nt, nt
# COc1cc2nc(NCCN3CCOCC3)n3nc(-c4ccccc4)nc3c2cc1OC is listed as -10.2%, nt, nt
# CCC(C)C(NCc1cccc(C)c1)C(=O)O (stereo not drawn) is listed as -9.5%, nt, nt
# COc1ccccc1OCc1nc2c3c(-c4ccccc4)c(-c4ccccc4)oc3ncn2n1 is listed as 5.0%, nt, nt

# Next section
# Under each structure – NS1 function inh, Cruzain Triton, Cruzain inh noDet
> O=C(c1cc2c(=O)oc3ccccc3c2s1)N1CCN(c2ncccn2)CC1
→ 17.9%, nt, nt
> Cc1ccc2c(c1)N(CC(=O)NCCN1CCOCC1)C(=O)CO2
→ 6.4%, nt, nt
> O=C(c1cc2nc3c(c(C(F)(F)F)n2n1)CCc1ccccc1-3)N1CCN2CCCC2C1 (stereo not drawn)
→ -5.6%, nt, nt
> CCOc1cc2c(cc1OCC)C(c1cc(OC)c(O)c(OC)c1)NCC2 (stereo not drawn)
→ 3.3%, nt, nt
> Cc1cc(C)nc(-n2c(Nc3ccccc3)cc(=O)c3c(C)n(-c4ccccc4)c(=O)nc32)n1
→ 7.9%, nt, nt
> CN(C)CCCNC(CC(=O)Nc1ccc(Cl)cc1)C(=O)O (stereo not drawn)
→ 2.9%, nt, nt
> CC(=O)NC(Cc1ccccc1C)C(=O)NC1CCN(c2c3c(nc4ncnn24)CCC3)CC1 (stereo not drawn)
→ 4.9%, nt, nt
> COC(=O)c1cc(OC)c(OC)cc1NC(=O)c1cc(C)on1
→ 18.8%, nt, nt
> O=c1cc(O)c2c(=O)n3c4c(cccc4c2o1)CCC3
→ -89.8%, nt, nt
> N=c1c(S(=O)(=O)c2ccccc2)cc2c(=O)n3ccccc3nc2n1CCN1CCOCC1
→ 3.9%, nt, nt
> c1cncc(-c2nn3c(-c4ccncc4)nnc3s2)c1
→ 6.2%, nt, nt
> CCc1c(C)nc(/N=C(/NC(=O)c2ccccc2)Nc2ccccc2OC)[nH]c1=O
→ 17.5%, nt, nt
> CCC(=O)Nc1ccc(-c2nn3c(C)nnc3s2)cc1
→ -0.6%, nt, nt
> O=S(=O)(c1ccc2oc(-c3ccncc3)nc2c1)c1ccc2oc(-c3ccncc3)nc2c1
→ -1.5%, nt, nt
> CCCCOc1ccc(C(=O)CCNC(C(=O)O)C(C)CC)cc1 (stereo not drawn)
→ -90.5%, nt, nt

# The listing continues.
# Under each structure – NS1 function inh, Cruzain Triton, Cruzain inh noDet
> CNC(=O)c1c(NC(=O)c2ccc(S(=O)(=O)N3CCOCC3)cc2)sc2c1CCC2
→ -16.4%, nt, nt
> Cc1ccc(C(=O)C2=C(O)C(=O)N(CCN(C)C)C2c2ccccn2)o1 (stereo not drawn)
→ 5.7%, nt, nt
> O=C(O)C(CC(=O)N1CCOCC1)NCc1ccccc1 (stereo not drawn)
→ -0.9%, nt, nt
> COc1ccc(-c2nnc3ccc(SCC(=O)N4CCN(c5ccccc5)CC4)nn23)cc1OC
→ -2.8%, nt, nt
> O=C(NCCCN1CCOCC1)c1cc2cc(Cl)cc(Cl)c2oc1=O
→ 2.7%, nt, nt
> O=c1c2ccccc2nc2c3ccccc3c(N3CCOCC3)nn12
→ -11.3%, nt, nt
> Cc1nnc2sc(-c3ccc(NC(=O)c4cccnc4)cc3)nn12
→ -7.2%, nt, nt
> COc1ccc2oc(C(=O)C3CC3)c(NC(=O)CCCN3C(=O)c4ccccc4C3=O)c2c1
→ -4.9%, nt, nt
> Cn1c(=O)c2c(-c3ccncc3)c3c(nc2n(C)c1=O)-c1ccccc1C3=O
→ 6.7%, nt, nt
> Cc1cccn2c(=O)c3cc(C(=O)N4CCN(c5ccccc5)CC4)n(C)c3nc12
→ -2.9%, nt, nt
> CCN1CCN(Cc2nc3c(c(=O)n(C)c(=O)n3C)n2Cc2ccc(Cl)cc2Cl)CC1
→ -149.9%, nt, nt
> CC1CCN(C(=O)CSc2ccc3nnc(-c4ccccc4)n3n2)CC1
→ -2.8%, nt, nt
> COC(=O)c1c(NC(=O)CSc2nc3c(c(=O)n(C)c(=O)n3C)n2C(C)C)sc(C)c1C
→ -26.4%, nt, nt
> CN(C)S(=O)(=O)c1ccc(S(=O)(=O)N(Cc2ccccn2)Cc2ccco2)cc1
→ 14.8%, nt, nt
> C[C@H](O)C(=O)Nc1c(I)c(C(=O)NC(CO)CO)c(I)c(C(=O)NC(CO)CO)c1I
→ nt, -5.3%, 13.1%

# More compounds follow:
# Under each structure – NS1 function inh, Cruzain Triton, Cruzain inh noDet
> CCOC(=O)CNC(=O)O[C@@H]1Cc2cc(OC)ccc2O[C@H]1c1cccc(OC)c1
→ nt, 2.1%, -1.5%
> COC(=O)C1(C(=O)OC)CC2=CCC3C(=O)N(c4ccccc4)C(=O)C3C2Cc2ccccc2[C@@H]1C[N+](=O)[O-] (stereo partly drawn)
→ nt, -1.1%, 13.4%
> COC(=O)[C@H](COC(C)(C)C)NC(=O)O[C@H]1C(=O)c2cc(OC)ccc2O[C@@H]1c1ccc(OC)c(Br)c1
→ nt, -2.2%, 20.9%
> CC1=C2C[C@H]3[C@@H](CC=C4C[C@@H](O)CC[C@@]43C)[C@@H]2CC[C@]12O[C@@H]1C[C@H](C)CN[C@H]1C2C (stereo partly drawn)
→ nt, 6.7%, -2.1%
> CCCCOCCOCCSC#N
→ nt, 3.4%, -4.0%
> CC(C)[C@@H](CC(=O)N[C@@H]1CCNC[C@H]1C(=O)N[C@H](CC(=O)N[C@@H](CCC(=O)O)CC(=O)O)Cc1ccccc1)NC(=O)C[C@H](Cc1c[nH]c2ccccc12)NC(=O)[C@@H]1CNCC[C@H]1N
→ nt, 1.9%, -3.2%
> CC(=O)N1C2(C=CC1(C)C(=O)NCc1ccc(C)o1)CCCCC2 (stereo not drawn)
→ nt, -6.0%, -5.1%
> C[C@]12O[C@H]1[C@@H](O)C(Br)=C(CO)[C@H]2O
→ nt, 1.6%, 0.0%
> COc1ccc2c(c1)O[C@@H](c1ccc3c(c1)OCO3)[C@H](OC(=O)NS(=O)(=O)c1ccc(F)cc1)C2=O
→ nt, -1.9%, -4.9%
> O=Cc1ccco1
→ nt, 1.6%, 0.1%
> CCN(CC)CCn1c(-c2ccccc2)nc2c(NC3CCCCC3)nc(C)nc21
→ nt, -0.5%, -10.3%
> Oc1ccc(O)c2c(O)cccc12
→ nt, ?, 12.6µM*
> Cc1nc(N2CCOCC2)c2nc(-c3ccccc3)n(CC3CCN(C)CC3)c2n1
→ nt, 6.9%, -1.2%

# High-throughput results from PubChem.
